GIV-Gai inh: GIV-Galpha-i interaction inhibition | P08753 | hit rate 0.42% among 210,000 | percent of control (FP), % (no concentration beside the values) | Galpha-i3/FITC-GIV peptide fluorescence polarization, 90 min; active compounds read low; scaled: aluminum fluoride 0%, vehicle 100%;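 active = replicate mean at 85% of control or lower, very high polarization wells dropped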;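 note: wells of about 15 µL received 100 nL stock; the first replicate is given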
Target sequence (P08753 whole entry, looked up): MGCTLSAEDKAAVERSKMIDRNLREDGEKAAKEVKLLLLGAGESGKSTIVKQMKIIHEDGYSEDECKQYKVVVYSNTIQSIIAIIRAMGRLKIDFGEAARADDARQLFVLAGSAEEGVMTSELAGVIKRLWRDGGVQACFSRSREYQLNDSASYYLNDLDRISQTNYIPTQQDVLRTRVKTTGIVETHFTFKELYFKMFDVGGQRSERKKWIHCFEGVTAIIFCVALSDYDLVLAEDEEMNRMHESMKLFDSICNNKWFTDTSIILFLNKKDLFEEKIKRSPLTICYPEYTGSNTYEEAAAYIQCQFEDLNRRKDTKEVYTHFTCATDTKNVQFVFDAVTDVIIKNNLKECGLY
HCMV NEC inh: disrupts HCMV UL50-UL53 complex binding | HTRF UL50-UL53 interaction, normalized percent inhibition | inhibition, % (test concentration not listed) | hit rate 0.15% among 190,000 | AID 1918969;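 active = both replicates at 50% or more, plus weaker picks with an unusually low signal ratio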;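 note: stock transfer was 100 nL into about 20 µL; 0% = negative control wells and 100% = wells with untagged competitor protein; inactives centre near -12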
Sa growth 42C: inhibitors of Staphylococcus aureus growth at 42 °C; hit rate 0.53% among 170,000; S. aureus RN4220 growth, OD600, 20 h; active compounds read low; relative growth, % (test concentration not listed);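 active = growth at 42 °C up to 50% and 20 or more points under that at 30 °C, or under 10% at both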;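 note: 300 nL library stock went into each well; scaled to the means of positive and negative controls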
Sa growth 42C second temp: further read-out of Sa growth 42C, marked with its call; relative growth, %; measured here: growth at 30 °C;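 optical density after 20 h as mean of two plates; 100% = untreated growth and lower means inhibition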
Starred values were filed as active, the others as inactive; · = not tested or not shown; & = joins results of further samples. Not a hit list; overall some 0.83% were active at least once.

SMILES	Sa growth 42C second temp	GIV-Gai inh	HCMV NEC inh	Sa growth 42C
Cc1ccc(-c2nc3scc(-c4ccc(Br)cc4)c3c(=O)o2)cc1	·	103	-20	·
CCN(CC)C(=O)c1ccccc1NC(=O)Cc1ccccc1	100	104	-13	97
C/C(CCn1c(=O)sc2ccccc21)=N\NC(N)=S	88	98	-14	110
C=C(C)c1cccc(C(C)(C)NC(=O)Nc2ccc(OC)nc2)c1	39	·	8	57
COc1ccc(/C=C/C(=O)O)cc1S(=O)(=O)N(C)CCO	84	102	·	64
CCOC(=O)Cn1c(=O)n(CC2CCCO2)c2nc(-c3ccc(C(C)C)cc3)nc(C(N)=O)c21 (stereo not given)	98	109&101	-7	91
Cc1ccc(-c2nc3ccccc3[nH]2)cc1NC(=O)COc1ccccc1[N+](=O)[O-]	75	101	-9	90
N#Cc1cccc(NC(=O)c2ccc3ncsc3c2)c1	95	·	-29	68
Cc1ccc2oc(=O)c3cnn(CC(=O)N(CC(C)C)CC(C)C)c3c2c1	98	109	0	102
CC1CC(C)CN(c2nc3c(c(=O)[nH]c(=O)n3C)n2Cc2ccccc2F)C1 (stereo not given)	69	105	-10	91
Cc1ccc(NS(=O)(=O)c2ccc(-c3cc(C)no3)cc2)c(Br)c1	87	103	·	92
CC(C)Cc1nn2c(=O)cc(COC(=O)c3ccc(NC(=O)C4CCCCC4)cc3)nc2s1	99	95	·	86
COc1nc(Oc2ccc(C(=O)OCC(N)=O)cc2)nc(N(C)C)n1	·	110	-1	·
C/C(=N/NC(=S)Nc1ccccc1)c1ccc2c(c1)OCO2	89	102	-32	102
Cc1onc(-c2ccccc2)c1C(=O)NNc1ccccc1C(F)(F)F	94	105	-9	102
CCOc1ccc(-c2c(C)nn3c(C)c(C(=O)NCCc4ccc(Cl)cc4)cnc23)cc1OCC	97	104	·	94
CCN1C(=O)c2cccc3c(NC(=O)C4CCCCC4)ccc1c23	101	·	-10	106
CC(C)Cn1cc(C(=O)N2CCN(Cc3ccc4c(c3)OCO4)CC2)c2c3ccccc3n(C)c2c1=O	44	100	-36	80
Cc1ccc(-n2nc(-c3ccccc3)c3cnc4cc5c(cc4c32)OCO5)cc1C	105	103	-4	99
CC1CN(S(=O)(=O)c2cccc3nsnc23)CC(C)O1 (stereo not given)	91	97	-47	100
Cc1cc(C)n2nc(CN(C(=O)C(C)C)c3ccccc3Cl)nc2n1	·	107	-30	·
CCOc1ccc(SCC(=O)O)cc1	102	·	-19	109
O=C(NCc1ccc2c(c1)N(C(=O)c1ccccc1)CC2)C1CCC1	·	98	5	·
O=C(NCC1CCCO1)c1cnc2sc3c(n2c1=O)CCC3 (stereo not given)	·	106	-10	·
CCc1cc(=O)[nH]c(-c2ccc(F)c(Cl)c2)n1	104	105	1	104
N#CC1(C#N)C(C(=O)c2ccc(F)cc2)C12CCSCC2 (stereo not given)	86	99	0	106
CC(NC(=O)c1cccc(S(C)(=O)=O)c1)c1ccc2c(c1)OCCO2 (stereo not given)	84	·	-40	80
OCCNc1nc2ccccc2nc1-c1ccccc1	110	107	-39	98
O=C(Nc1cccc(Cl)c1)Nc1ccc2nc3n(c(=O)c2c1)CCCC3	·	103	-10	·
CCOC(=O)c1[nH]c2ccccc2c1NC(=O)c1ccccc1OCC	104	104	1	108
COc1ccc(N/N=C(\C#N)C(=O)Nc2ccc(C)c(C)c2)cc1	101	·	-6	112
CCOC(=O)c1[nH]c(C)c(CCC(=O)Nc2ccccc2OCC)c1C	87	107	·	95
Cc1ncc(CO)c2c1Oc1nc(-c3ccccc3)nc(SCC(=O)Nc3cccc(C(F)(F)F)c3)c1C2	95	109	·	105
O=c1nc2n(c3sc4c(c13)CCCC4)Cc1ccccc1C2	33	·	-84	69
O=C(O)Cn1c(-c2ccccc2)nc2ccccc21	91	104	·	100
Cc1cccc(CSc2nc3cc(C(=O)NC4CCCC4)ccc3c(=O)n2Cc2ccccc2)c1	88	96	·	98
O=C(Nc1ccc(Br)c(Cl)c1)c1ccc(C(=O)Nc2ccc(Br)c(Cl)c2)cc1	103	107	-3	102
CCN(CC)CCNc1cc(C)nc2c(-c3ccc(F)cc3)c(C)nn12	·	100	5	·
O=c1[nH]c2ccccc2n1CCCSc1cc(C(F)(F)F)c2cc3c(cc2n1)OCO3	90	103	-14	94
CCCC(=O)Nc1nnc(-c2cccc(OCC)c2)s1	101	105	3	85
Cc1ccc(CCNC(=O)c2ccc3nc(-c4ccco4)c(-c4ccco4)nc3c2)cc1	68	107	-67	94
CCOc1ccc2c(c1)cc(C(=O)NCCOc1ccccc1)n2C	·	100	0	·
COC(=O)C(C)Nc1ncnc2onc(C)c12 (stereo not given)	86	93	-30	113
CC(=O)N1c2ccccc2C2=NNC(=S)NC21O (stereo not given)	84	·	-14	91
CC1(C(=O)NC2CCCC2)COc2c(oc3ccccc23)C(=O)N1Cc1cccc(F)c1 (stereo not given)	·	103	-24	·
O=C(CSc1c2c(nc3cc(Cl)ccc13)CCCC2)NCc1ccccc1Cl	106	108	-27	98
O=S(=O)(CCN1CCN(c2ccccc2)CC1)c1ccc(F)cc1	89	97	-5	93
O=C(CSC1=NNC(c2ccccn2)S1)Nc1cccc(Cl)c1 (stereo not given)	84	93	-4	70
CN(C)C(=O)COc1ccccc1C(=O)O	93	·	-20	83
CN(Cc1ccccc1)C(=O)CSc1nc2ccccc2n1Cc1ccccc1F	88	103	·	89

Continuation:
SMILES	Sa growth 42C second temp	GIV-Gai inh	HCMV NEC inh	Sa growth 42C
COc1ccc(CCN(C)c2nnnn2-c2ccccc2)cc1OC	98	·	-4	90
CCCn1c(NCc2ccccc2F)nc2ccccc21	88	108	9	104
COc1ccc(CNC(=O)CCn2c(=O)c3cccn3c3ccc(F)cc32)cc1OC	98	106	11	100
O=c1ccc2ccc(OCc3nn[nH]n3)cc2o1	·	100	-16	·
O=C(c1cc2cc(Br)ccc2oc1=O)N1CCOCC1	88	102	·	109
CCN1CCN(C(=O)/C=C\C(=O)O)CC1	87	101	·	87
O=C(CSc1nc(-c2ccccc2)no1)N1CCN(c2ccc(F)cc2)CC1	87	105	·	99
CCOC(=O)Cn1nc(-c2ccccc2)c2cnc3ccc(CC)cc3c21	72	103	·	78
COc1cc(NC(=O)c2c(-c3ccc(C)cc3)nnc3ccccc23)cc(OC)c1OC	91	109	·	101
CCOc1ccc(S(=O)(=O)c2c(C(=O)c3ccc(C)c(C)c3)cnc3ccc(F)cc23)cc1	89	103	·	85
Cc1ccc(-n2c(C)cc(CO)c2C)cc1	78	105	-3	116
CCCNS(=O)(=O)c1cc(Br)cc2c1N(C(=O)CC)CC2	92	107	·	108
CCc1ccc(NC(=O)C2CCCN2S(=O)(=O)c2ccc3nc(-c4ccccc4)[nH]c3c2)cc1 (stereo not given)	110	115	·	97
O=S(=O)(c1cccc(-c2nnco2)c1)N1CCCC1	95	·	3	93
Cn1c(=Nc2ccc(N3CCOCC3)cc2)ccc2ccccc21	89	100	·	125
O=c1c(=NNc2ccccc2)c(=O)c2ccccc12	93	111	-76	99
O=C(c1cc2c(s1)-c1ccsc1CC2)N1CCN(c2ccccc2)CC1	102	105	-22	109
Cc1cccc(CSc2nc3c(c(=O)[nH]2)CCC3)c1	94	106	-22	101
O=C(Cn1nnc(-c2ccccc2)n1)N1CCCCC1	98	99	-25	96
CC(=O)N1CC(C)Oc2ccc(S(=O)(=O)N(Cc3ccccc3)C(C)C)cc21 (stereo not given)	95	105	-3	105
CS(=O)(=O)Cc1nc2ccccc2[nH]c1=O	·	101	-64	·
CCCCCOc1ccc(NC(=O)C(C)(C)C)cc1	97	115	8	104
CCn1nc(C)c(NC(=S)Nc2ccc(OC)c(OC)c2)c1C	100	103	-4	105
Cc1cc(C(=O)Cn2cnnc2C#N)c(C)n1CCc1ccc(Cl)cc1	92	·	-5	97
FC(F)(F)c1cnc2c(-c3ccc(Cl)cc3Cl)onc2c1	·	180	-39	·
CCOC(=O)c1sc(NC(=O)c2cc3nc(-c4ccc(Br)cc4)cc(C(F)(F)F)n3n2)c(C(=O)OCC)c1C	99	109	·	107
O=c1cc(CN2CCN(c3ccc(F)cc3)CC2)occ1OCC1OCCO1	85	101	-35	98
O=S1(=O)CCC(S(=O)(=O)Nc2nccs2)C1 (stereo not given)	·	103	-24	·
CCCc1nc2ccccc2n1CC(=O)c1ccc(F)cc1	91	·	-16	101
Cn1c(Nc2ccc(Cl)cc2)cc(=O)n(C)c1=O	89	104	-20	93
Cc1ccc(CNC(=O)C2CCN(c3nnc(-n4cccc4)s3)CC2)cc1	·	102	-3	·
Cc1n[nH]c(C)c1CCNC(=O)Nc1ccccc1-c1ccccc1	94	99	-37	102
O=c1[nH]nc(SCc2cscn2)n1CCc1ccccc1	98	·	-7	101
C[C@H](NC(=O)c1ccc(F)cc1)c1nc2ccccc2[nH]1	90	·	-19	87
Cc1ccccc1NC(=O)c1c(C)oc2ccc(O)c(CN3CCOCC3)c12	85	98	-9	120
CC(C)CCNc1nc2ccccc2n2cnnc12	81	101	·	94
CC(C)(C)c1cc(SCCC#N)cc(C(C)(C)C)c1O	58	109	-16	72
COc1ccccc1NC(=O)CSc1nnc(-c2cc3sccc3n2C)n1-c1c(C)cc(C)cc1C	97	100	1	112
COc1ccc(Nc2c(-c3ccc(Cl)cc3)nc3cnccn23)cc1OC	59	106	-12	96
CCOc1ccc(-c2nnc(SCC(=O)NCc3ccccc3)o2)cc1	66	100	6	100
CCCCC(=O)Nc1ccc(-c2nc3ccccc3o2)cc1	·	110	-25	·
CC(C)N(C(=O)Cn1c(CN2CCCCC2)nc2ccccc21)c1ccccc1	·	102	-1	·
CC1CCCCN1CCCNC(=O)CN1C(=O)c2cccnc2Oc2ccc(Cl)cc21 (stereo not given)	93	107	·	110
CCOc1ccc(C2=NC3(CCN(C(C)C)CC3)NC(c3cc(Cl)ccc3O)C2)cc1 (stereo not given)	94	110	·	97
FC(F)(F)c1ccc(Cl)nc1Cl	93	·	-21	107
CC(C)CCN(C)C1CCN(C(=O)Nc2ccc(Cl)c(Cl)c2)CC1	72	103	·	96
CN(Cc1ccccc1)C1(O)C(=O)Nc2ccc(Br)cc21 (stereo not given)	80	100	-41	91
CC(C)CCn1c(=O)c2sccc2n2c(CCCC(=O)NC(C)c3ccccc3)nnc12 (stereo not given)	97	100	·	113
O=S(=O)(NCc1ccco1)c1ccc(-c2ccc(S(=O)(=O)NCc3ccco3)cc2)cc1	64	102	-3	88
Cc1cc2cc3c(cc2nc1SCC(=O)OC(C)C)OCO3	91	103	11	108

4 of these compounds in another layout.
CC(C)N(C(=O)Cn1c(CN2CCCCC2)nc2ccccc21)c1ccccc1
  Sa growth 42C second temp: ·
  GIV-Gai inh: 102
  HCMV NEC inh: -1
  Sa growth 42C: ·
CC1CCCCN1CCCNC(=O)CN1C(=O)c2cccnc2Oc2ccc(Cl)cc21 (stereo not given)
  Sa growth 42C second temp: 93
  GIV-Gai inh: 107
  HCMV NEC inh: ·
  Sa growth 42C: 110
CCOc1ccc(C2=NC3(CCN(C(C)C)CC3)NC(c3cc(Cl)ccc3O)C2)cc1 (stereo not given)
  Sa growth 42C second temp: 94
  GIV-Gai inh: 110
  HCMV NEC inh: ·
  Sa growth 42C: 97
FC(F)(F)c1ccc(Cl)nc1Cl
  Sa growth 42C second temp: 93
  GIV-Gai inh: ·
  HCMV NEC inh: -21
  Sa growth 42C: 107

Additional records follow:
SMILES	Sa growth 42C second temp	GIV-Gai inh	HCMV NEC inh	Sa growth 42C
CCOC(=O)Cn1cc2c(c1-c1ccccc1Br)c(=O)n(C)c(=O)n2C	94	108	-11	103
CCOC(=O)N1CCN(C(=O)N2c3ccccc3Sc3ccccc32)CC1	59	102	11	91
CCOC(=O)c1ccc2c(N)c(-c3cccnc3)sc2n1	92	103	-24	108
CCN(CC)S(=O)(=O)c1ccc(C(=O)NCC(=O)Nc2nc3ccccc3[nH]2)cc1	92	·	2	108
Cc1cccc(NC(=O)CC2CC3CCC2C3)c1 (stereo not given)	92	103	·	118
COc1cccc2cc(-c3cc(=O)oc4ccc(OC(=O)N5CCOCC5)cc34)oc12	84	101	-41	79
Cc1ccc(NC(=O)Cn2cnc3onc(C)c3c2=O)cc1C	96	97	-12	97
Nc1ncnc2nc(N3CCCC3)ncc12	81	97	28	104
Cc1ccc2c(c1)N(CC(=O)NCCCN1CCCCC1)C(=O)c1cccnc1O2	103	103	·	89
COc1ccc(N2CCN(C(=O)CSCc3nc(-c4ccccc4Cl)oc3C)CC2)cc1	93	107&103	-2&-32	84
CCc1ccc(C(=O)CC2(O)C(=O)N(C(C)C)c3ccccc32)cc1 (stereo not given)	84	102	-12	90
COC(=O)c1ccc2c(=O)n(CCc3ccc(S(N)(=O)=O)cc3)c(SCC(=O)Nc3ccc(N(C)C)cc3)nc2c1	·	102	-3	·
